Bioassay records as filed in PubChem BioAssay.
PABP FP inh: blocks human PABP binding to poly(A) RNA. P11940. fluorescence polarization. inhibition, % at 35 µM. hit rate 1% among 290,000;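 active = 50% or more with normal probe brightness, or confirmed in later tests; inconclusive = above 50% with abnormal brightness, or retests that disagree; inactive = below 50% or failed in later tests; about a fifth of its hits are not listed in these tables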;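 note: calls also rest on retests at 20 µM and on dose response follow-up; controls were probe without protein and protein plus probe with vehicle; some compounds called inactive have numbers as strong as hits; many hits fall short of the cut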
Rce1 inh: yeast Ras-converting enzyme inhibition. Q03530. yeast membranes, quenched prenylated peptide cleavage fluorescence. calls only. hit rate 0.27% among 290,000. AID 2563;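 active = fall in fluorescence gain of 50% or more versus controls, with final raw signal at or below 3038400; inconclusive = same 50% fall but final raw signal above 3038400; inactive = fall in fluorescence gain under 50%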;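 note: plate controls were neutral control wells for no effect and wells lacking membranes for full effect; tested at 10 µM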
Target sequence (Q03530 whole entry, looked up): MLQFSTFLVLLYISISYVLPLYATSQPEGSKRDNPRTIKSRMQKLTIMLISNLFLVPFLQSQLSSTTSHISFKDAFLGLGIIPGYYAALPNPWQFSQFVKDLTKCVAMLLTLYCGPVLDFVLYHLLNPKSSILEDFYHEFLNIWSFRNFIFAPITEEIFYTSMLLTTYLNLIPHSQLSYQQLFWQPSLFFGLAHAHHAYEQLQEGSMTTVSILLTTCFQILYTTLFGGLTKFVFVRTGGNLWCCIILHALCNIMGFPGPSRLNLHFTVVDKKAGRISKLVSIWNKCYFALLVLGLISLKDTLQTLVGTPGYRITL
eIF4H FP inh: inhibitors of RNA binding by human eIF4H. Q15056. eIF4H fluorescence polarization binding assay. inhibition, % at 35 µM. hit rate 0.94% among 290,000;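 active = 50% or more with normal probe brightness, or confirmed in later tests; inconclusive = above 50% with abnormal brightness, or retests that disagree; inactive = below 50% or failed in later tests; about a fifth of its hits are not listed in these tables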;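 note: calls also rest on retests at 20 µM and on dose response follow-up; 0% = protein and probe with vehicle and 100% = probe without protein; strong numbers were not always called active; many hits fall short of the cut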
UUG fidelity: alters start codon recognition fidelity in yeast; hit rate 0.13% among 350,000; AID 602363; activity score, % at 18.7 µM; S. cerevisiae UUG-firefly luciferase reporter, luminescence/redox ratio;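 active = replicate mean at a twofold rise or more, about +100% in these data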;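 note: firefly luciferase made from a UUG start codon reports start codon fidelity; reporter light over untreated wells divided by growth signal over untreated wells; some hits fall short of that in this replicate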
MT1-MMP act inh: inhibitors of human MT1-MMP activation. P50281. GFP/RFP ratio change, % at 20 µM. hit rate 0.061% among 360,000. HT1080 RFP-PRO-GFP cells, GFP/RFP ratio fluorescence, overnight; percent of plate control window, DMSO zero;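 active = GFP/RFP ratio change of at least 30% with cell ATP level not reduced by more than half and red fluorescence within 50% of control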; note: strong numbers were not always called active
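system = RFP-PRO-GFP reporter HT1080 cells | dosing = 20 µM single dose, 1% DMSO | timing = overnight cell settling, then overnight compound exposure, 37 °C, 5% CO2 | read-out basis = GFP/RFP fluorescence ratio | controls = DMSO and RFP-L50D-GFP cell wells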
CSC inhib: blocks cancer stem cells | hit rate 1.1% among 300,000 | inhibition, % at 7.5 µM | cancer stem cell-like cells viability, luminescence | AID 2717;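 active = mean at 75% or more and at least half the replicates too; inconclusive = mean and replicates disagree; tested in HMLE shEcad cells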;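 note: 0% = median of negative and 100% = median of positive control wells; the first replicate is given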
HIV Env fusion: HIV envelope-mediated fusion inhibition; HeLa-JRFL Env/CEM21 cell fusion, luciferase; inhibition, % at 12.3 µM; hit rate 1.1% among 360,000;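 active = mean replicate inhibition score of at least 50 and every replicate individually at or above 50; inconclusive = only one of the two criteria met; inactive = mean below 50 and not all replicates reaching 50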;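 note: 0% = plate neutral controls and 100% = maraviroc near 300 nM; one replicate is shown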
eIF4H FP inh retest: second read-out of eIF4H FP inh, no call of its own (marks repeat the call); inhibition, %; compound at 20 µM; confirmation average;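 mean of two retest wells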
PABP FP inh retest: also measured in PABP FP inh; calls as there; inhibition, %; compound at 20 µM; confirmation repeats;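 mean of two retest wells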
MT1-MMP act inh RFP: further read-out of MT1-MMP act inh, marked with its call; RFP signal change, %; measured here: RFP expression control read;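 0 = vehicle wells; hits needed this value within 50% of zero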
Starred values were filed as active, the others as inactive; i = inactive; ? = inconclusive; / = no result given; + = active, no number; & = joins results of further samples. Some of the compounds tested, so the mix of outcomes need not match the whole.

SMILES | PABP FP inh | Rce1 inh | eIF4H FP inh | UUG fidelity | MT1-MMP act inh | MT1-MMP act inh RFP | CSC inhib | HIV Env fusion | others
COc1ccc(NC(=O)N(C)C[C@H]2Oc3ccc(NS(=O)(=O)c4ccc(F)cc4)cc3C(=O)N([C@H](C)CO)C[C@@H]2C)cc1 | / | / | / | -1.7&-14.0 | -3.4 | 2.1 | / | -1.8
O=C(NCCn1cc(SCc2ccc(F)cc2)c2ccccc21)c1ccccc1F | 10.9 | i | 2.8 | -4.9 | -3.6 | -16.7 | 42.7 | /
CCc1nc2ccccc2c(C(=O)OCC(=O)C(C)(C)C)c1C | 4.8 | i | -3.0 | / | -2.9 | -0.8 | -1.6 | 16.8
COc1ccc(OC)c(C2C(C(=O)c3ccc(C)o3)=C(O)C(=O)N2c2cc(C)on2)c1 (stereo not given) | 16.9 | i | 0.3 | -9.8 | 5.0 | 2.1 | -14.1 | -0.2
Cc1c(C)n(Cc2ccccc2)c2ncnc(NCCN(C)C)c12 | -0.2 | i | -11.2 | -15.9 | 2.0 | -4.0 | 17.0 | 2.0
Cc1cc(C)c2[nH]c(=O)c(CN(CC3CCCO3)C(=O)C3CCCO3)cc2c1 (stereo not given) | -6.4 | i | -4.3 | -10.2 | 1.2 | 2.5 | 2.0 | /
COc1ccc(CCNC2CC(=O)N(N(C)C)C2=O)cc1OC (stereo not given) | 1.3 | i | -7.1 | -4.2 | -2.7 | 2.0 | -5.4 | 1.5
Cc1ccccc1NC(=S)N(Cc1cccnc1)Cc1ccccc1Cl | -5.1 | i | -1.3 | / | 1.0 | -2.2 | -4.0 | -22.3
O=S(=O)(c1ccccc1)N1CCN(C(c2ccccc2)c2ccc(OC(F)(F)F)cc2)CC1 (stereo not given) | -15.6 | i | -4.3 | -3.1 | -2.8 | -2.4 | 20.2 | -0.6
COc1ccc(/C=C(/C(=O)c2ccc(Cl)cc2Cl)n2cncn2)cc1 | 13.9 | i | 2.4 | -23.0 | -2.5 | -5.6 | 17.0 | -35.5
O=C(Nc1ccccc1OC(F)F)c1cccc(S(=O)(=O)N2CCCC2)c1 | 3.2 | i | -6.0 | 1.7 | 2.1 | 1.3 | 13.3 | 6.0
COc1ccc(S(=O)(=O)NC(C(=O)NCCc2ccccn2)C(C)C)cc1 (stereo not given) | 0.8 | i | -2.1 | / | 4.5 | 5.3 | -12.1 | 1.3
Nc1ccc(C(=O)OCCc2ccccc2)cc1 | / | i | / | -35.1 | 2.9 | 1.3 | 18.5 | -194.7
CN(C(=O)c1cnc(N2CCN(c3ncccn3)CC2)c2ccccc12)c1ccc(Cl)cc1 | -5.4 | i | -6.1 | 5.1 | -10.2 | -18.0 | -7.1 | /
COc1ccccc1C(=O)NCCC(=O)Nc1ccc(S(=O)(=O)Nc2ncccn2)cc1 | / | / | / | -8.1 | -1.1 | 2.1 | / | -6.1
Cn1c(N)c(C(=O)CSc2nc(N)cc(=O)[nH]2)c(=O)n(C)c1=O | 0.3 | i | -7.4 | -9.7 | -0.9 | 0.0 | -10.5 | 20.9
NC(=O)CSc1nccn1Cc1ccc(Cl)cc1 | -7.1 | i | -1.8 | / | -0.5 | -2.8 | -2.3 | -5.4
O=C(NCC(c1ccco1)N1CCCCC1)C(c1ccccc1)c1ccccc1 (stereo not given) | 4.8 | i | 7.7 | -5.4 | -0.2 | 1.9 | -1.2 | -13.7
COc1ccc(OCC(=O)N2CCN(c3nnc(-c4ccccc4)c4ccccc34)CC2)cc1 | -15.5 | i | -10.2 | -0.3 | 0.2 | -11.9 | -10.1 | 24.1
Cc1cc(C)c(NC2=NS(=O)(=O)c3ccccc32)c(C)c1 | 8.6 | i | -2.5 | 6.3 | 1.4 | 0.5 | 1.4 | 4.1
COc1ccc(S(=O)(=O)N(CC(=O)N2CCN(C)CC2)C2CCCCC2)cc1OC | 5.3 | / | 10.0 | -19.8 | -1.3 | 4.2 | 1.7 | /
COC(=O)Cc1ccc(NC(=O)c2ccc3c(c2)C(=O)N(CC2CCCO2)C3=O)cc1 (stereo not given) | 2.8 | i | -11.2 | -12.2 | -0.1 | -3.7 | 1.9 | 13.3
COc1ccc(CCNC(=O)CN2C(=O)NC(Cc3c[nH]c4ccccc34)C2=O)cc1 (stereo not given) | 6.8 | i | 3.0 | -9.3 | -2.4 | 0.3 | 3.3 | -0.4
Cc1nn(-c2ccccc2)c(C)c1/C=N/NC(=O)c1cc(C23CC4CC(CC(C4)C2)C3)[nH]n1 | -7.0 | i | -0.5 | / | -0.6 | -3.1 | 96.8* | /
CCc1nc(CNC(=O)C2CCC(=O)N(CCc3cccc(F)c3)C2)no1 (stereo not given) | -8.0 | i | -3.7 | 11.1 | 4.8 | 1.8 | 9.6 | -17.0
CN(C(=O)COC(=O)CSc1ccc([N+](=O)[O-])cc1)c1ccccc1 | / | / | / | 1.4 | 4.8 | 8.7 | -4.6 | /
Cc1ccc(C)c(OCCCCCn2ccnc2)c1 | 2.0 | i | -5.3 | -13.7 | 3.8 | -0.5 | 49.3 | -8.9
Cc1cc(C)c(C(=O)N2CCCC(CNS(=O)(=O)c3cccs3)C2)o1 (stereo not given) | -8.5 | i | -22.4 | -6.3 | -3.3 | -4.2 | -7.1 | 3.3
O=C(O)C1C2OC(C(Br)C2Br)C1C(=O)O (stereo not given) | / | / | / | -13.7 | -1.7 | 1.8 | / | ?
O=C(Nc1ccc(F)cc1)N(CCCN1CCOCC1)Cc1cc2cc3c(cc2[nH]c1=O)OCO3 | -5.6 | i | 8.0 | / | 1.3 | 8.7 | / | /
CC(=O)c1cc2c(cc1NC(=O)c1ccc(-n3nc(C)cc3C)cc1)OCO2 | / | / | / | -6.8 | -1.7 | -1.5 | / | -0.8
CC(C)(C)c1ccc(C(=O)NCC(=O)OCN2C(=O)c3ccccc3C2=O)cc1 | -0.9 | i | -4.1 | -5.4 | -0.4 | 6.0 | -9.2 | -130.6
S=C(NCc1ccccc1)N1CCN(Cc2ccc3c(c2)OCO3)CC1 | -2.1 | i | -6.5 | -9.8 | 0.6 | -6.2 | 14.0 | -4.2
COc1ccccc1CNC(=O)c1ccc(OCC2CCCO2)cc1 (stereo not given) | 8.6 | i | 5.2 | / | 4.5 | 9.3 | -4.2 | -17.7
O=S(=O)(c1ccc(F)c(F)c1)N1CCN(c2ncccn2)CC1 | -6.6 | i | -2.4 | -18.6 | -0.6 | 1.9 | 5.2 | -17.7
CC1=CC2(C)NC(=O)C(C)C12 (stereo not given) | / | / | / | -14.2 | 1.6 | 1.0 | / | -5.4
CCCCNCc1cc2ccccc2o1 | 8.2 | i | 8.6 | -13.7 | -4.5 | -3.0 | -4.3 | 8.6
CCOC(=O)COc1coc(CN2CCN(c3cccc(Cl)c3)CC2)cc1=O | -9.6 | i | -8.7 | -3.2 | 3.6 | 5.6 | -12.9 | 16.2
COC(=O)c1cc(NS(=O)(=O)c2ccc(NCc3cccnc3)c([N+](=O)[O-])c2)cc(C(=O)OC)c1 | -5.3 | i | -2.2 | / | -1.5 | -6.0 | -0.6 | /
COc1ccc(/C=N/NC(=O)c2ccc(Cl)cc2)cc1COC(C)=O | 7.0 | + | 7.4 | -9.3 | 10.1 | 5.8 | 19.7 | -4.4
CCCCN(C(=O)C1CC(=O)N(CCc2ccc(OC)c(OC)c2)C1)c1c(N)n(CCCC)c(=O)[nH]c1=O (stereo not given) | / | i | / | / | / | / | -2.6 | -5.1
COc1ccc2nc(N3C(=O)/C(=C/c4ccc(Cl)cc4)NC3=S)sc2c1 | 0.2 | / | 63.6 | / | -42.6 | -1.7 | / | -18.1 | eIF4H FP inh retest=36.7;PABP FP inh retest=48.2
NNc1cc([N+](=O)[O-])cc2c1C(=O)N(Cc1ccccc1)S2=O (stereo not given) | -1.5 | i | 14.0 | / | 5.5 | 6.3 | -6.2 | -6.3
COc1ccc(S(=O)(=O)NC(=O)C2(C)CCN2C(=O)COc2ccc(Cl)cc2)cc1 (stereo not given) | / | / | / | -16.9 | 0.4 | 1.8 | / | 10.2
Cc1ccc2nccc(C(=O)N3CCCC(Nc4ccc(C)c(C)c4)C3)c2c1 (stereo not given) | / | i | / | 0.3 | 0.3 | -1.8 | -13.6 | 7.5
Cc1ccc(SCCNC(=O)C(C)C)cc1 | 5.5 | i | -12.5 | 10.4 | 0.5 | 1.4 | -5.5 | /
Cc1cc(C)c(C)c(S(=O)(=O)N2CCC(C(=O)NCCCN3CCOCC3)CC2)c1C | / | / | / | -4.9 | 0.4 | 3.4 | -16.0 | 7.2
CCOC(=O)Cc1csc(NC(=O)CSc2ccc(Br)cc2)n1 | -9.1 | i | -4.7 | / | 1.3 | 3.2 | 3.2 | /
COC(=O)c1ccc(CSc2nc3sc4c(c3c(=O)n2C)CCCC4)o1 | 2.7 | i | -3.9 | -23.5 | 1.4 | -1.1 | / | /
COc1cc(C2/C(=C(\O)c3cc(C)ccc3C)C(=O)C(=O)N2CCN(C)C)ccc1O (stereo not given) | 8.4 | i | -15.4 | -13.9 | 5.1 | 5.2 | / | /
O=C(CN1C(=O)/C(=C2\SC(=S)N(C3CCS(=O)(=O)C3)C2=O)c2ccccc21)Nc1ccc(F)cc1 (stereo not given) | 5.6 | i | -2.8 | 0.2 | 1.9 | 3.6 | 2.4 | -4.4
CCOC(=O)C(C)On1c(-n2nc(C)cc2C)nc2ccccc2c1=O (stereo not given) | 11.6 | i | -8.7 | -12.8 | -0.8 | 3.3 | 7.5 | -9.0
CC(C)C(NC(=O)c1ccccc1)C(=O)OCn1nnc2ccccc2c1=O (stereo not given) | / | / | / | -8.8 | 3.9 | 5.0 | -16.2 | /
NS(=O)(=O)c1ccc(CNC(=O)CCS(=O)(=O)Cc2ccccc2)cc1 | 8.1 | i | -5.7 | -15.5 | -1.6 | 4.5 | 8.9 | -7.4
COc1ccc(Cc2nnc(NC(=O)Nc3ccc(F)cc3)s2)cc1 | 0.7 | i | 3.9 | -11.6 | 4.8 | 1.2 | / | 3.5
O=C(Nc1cccnc1Cl)C1CCCN(c2ncnc3c2nc2n3CCCCC2)C1 (stereo not given) | 13.0 | i | -0.9 | 8.0 | 5.0 | -5.4 | / | 0.4
CCNC(=S)NC1CC2CCCC(C1)N2Cc1ccc(C)cc1 (stereo not given) | -5.0 | i | -5.9 | -33.6 | 5.5 | 3.3 | -22.9 | -4.9
CC(=O)Nc1cccc(NC(=O)CSc2nnc(NC(=O)c3ccco3)s2)c1 | 6.0 | i | 0.2 | 3.3 | -0.3 | 1.6 | -15.1 | -21.3

For convenience, some entries already given:
SMILES | PABP FP inh | Rce1 inh | eIF4H FP inh | UUG fidelity | MT1-MMP act inh | MT1-MMP act inh RFP | CSC inhib | HIV Env fusion | others
COc1ccc(NC(=O)N(C)C[C@H]2Oc3ccc(NS(=O)(=O)c4ccc(F)cc4)cc3C(=O)N([C@H](C)CO)C[C@@H]2C)cc1 | / | / | / | -1.7&-14.0 | -3.4 | 2.1 | / | -1.8
O=C(NCCn1cc(SCc2ccc(F)cc2)c2ccccc21)c1ccccc1F | 10.9 | i | 2.8 | -4.9 | -3.6 | -16.7 | 42.7 | /
